Bioassay records deposited in PubChem by Emory University Molecular Libraries Screening Center.
Measles inh: inhibitors of measles virus growth in infected cells; z-score (concentration not given with the values); infected Vero cells, GFP fluorescence, 64 h; stronger effect = lower value; 33,000 compounds, 0.1% hits;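 active = z-score under -3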;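 also: score is relative to mean and SD of the compound wells of a plate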
* marks the source's active call; other numbers are inactive results. The list is partial (hit frequency here may not be typical).

SMILES	Measles inh
COc1ccc2oc(=O)c(-c3csc(Nc4ccc(Cl)cc4)n3)cc2c1	-1.8
COC(=O)c1c(C)oc2ccc(NS(=O)(=O)c3ccc(Cl)c(C)c3)cc12	0.06
Cc1cc2ccccc2c(=O)n1CC(=O)N1CC(C)CC(C)C1 (configuration not stated)	-0.46
Cc1cccc(NC(=O)Cn2c(=O)n(CC3CCCO3)c(=O)c3ccccc32)c1 (configuration not stated)	-0.07
Cc1ccc(-n2c(=O)c3sccc3n(CC(=O)c3ccccc3)c2=O)cc1	-0.42
O=C(CN1C(=O)CSc2ccc(S(=O)(=O)N3CCCC3)cc21)NC1CCCC1	-0.35
CCCCCOC(=O)c1c(C)oc2ccc(NS(=O)(=O)c3cc(C)ccc3C)cc12	-0.76
Cc1cccc(NC2=NC3(CCCC3)N=C(N)N2)c1	-2
COc1cccc(C2Nc3ccccc3-c3nnc(SCc4ccccc4)nc3O2)c1OC (configuration not stated)	-0.32
Cc1cc2c(cc1C)NC(CC(=O)Nc1ccc(OC(F)F)cc1)C(=O)N2 (configuration not stated)	0.53
COc1cc([N+](=O)[O-])cc(C=Nc2ccc(-c3nc4ncccc4o3)cc2)c1O	0.43
CCOc1ccc2c(c1)sc1nc(C(=O)OC)cc(=O)n12	1.1
c1cc2c3c(cccc3c1)C(N1CCCCC1)=N2	0.1
CCSc1nc2c(c(=O)[nH]1)C(c1cccc(Br)c1)C1=C(CCCC1=O)N2 (configuration not stated)	-0.36
CCOC(=O)CNC(=O)c1cc2c(n(-c3ccc(Cl)cc3)c1=O)CC(C)(C)CC2=O	0.69
CCn1cc(S(=O)(=O)CC(=O)Nc2ccc(C)cc2C)c2ccccc21	-1.8
CCN(CC)c1nc(-c2ccccc2)nc2ccccc12	-1.2
S=c1[nH]nc(-c2ccco2)n1-c1ccc(Oc2ccccc2)cc1	0.57
Cc1nc2c(C(=O)NCc3ccccc3)c[nH]n2c(=O)c1Cl	-0.24
CCOc1ccc(NS(=O)(=O)c2ccc3[nH]cc(C(=O)NCC4CCCO4)c(=O)c3c2)cc1 (configuration not stated)	-0.56
Cc1ccc(CCN2CC(C(=O)NCCCN3CCCCC3C)CC2=O)cc1 (configuration not stated)	-0.2
CN(C)c1ccc(C=Nc2sc3c(c2C#N)CCCC3)cc1	2.3
C=CCn1c(SCC(=O)NCCN2CCOCC2)nc2sc3c(c2c1=O)CCCC3	0.06
COc1cc2c(C(=O)N3CCCC3)cn(C)c(=O)c2cc1OC	0.32
Cc1ccc(-c2nnc(-c3ccc(Br)cc3)o2)cc1S(=O)(=O)N1CCOCC1	-1.1
O=C(Cn1c2ccccc2c(=O)c2ccc(Cl)cc21)Nc1ccc(Br)cn1	-0.01
Cc1c(C(=O)Nc2ccc(I)cc2)sc2ncn(C)c(=O)c12	0.21
O=C(c1cccs1)c1coc2ccc(O)c(CN3CCCCC3)c12	1.5
O=C(CC1N=C2c3ccccc3N=C(SCC(=O)c3ccc(F)cc3)N2C1=O)NCc1cccs1 (configuration not stated)	1.9
Cc1ccc(NC(=O)C2CCN(S(=O)(=O)c3ccc(Cl)cc3)CC2)cc1C	-0.07
CCc1cccc(NC(=O)c2ccc(NS(=O)(=O)c3c(C)noc3C)cc2)c1	1.1
CCOc1cccc(N2C(=O)CC(N3CCN(C)CC3)C2=O)c1 (configuration not stated)	-0.38
COc1ccc(NC(=O)c2cc3ccccc3oc2=Nc2ccccc2Cl)cc1	-0.69
CCCCc1ccc(NC(=O)COc2cccc(Cl)c2)cc1	-0.9
Cc1nc(Nc2nc(-c3ccccc3)cc(=O)[nH]2)nc2c(C)cccc12	0.08
Cc1c(C)n(C)c2ccc(C(=O)NCc3cccs3)cc12	0.04
CC(=O)C1=C(O)C(=O)N(c2ccc(O)cc2)C1c1ccc(F)cc1 (configuration not stated)	0.04
N#Cc1ccc(NC(=O)c2cc3nc(-c4ccc(Cl)cc4)cc(C(F)(F)F)n3n2)cc1	0.52
COc1cccc(NC(=O)Cn2cnc3sc(C)cc3c2=O)c1	0.38
COc1cc(NC(=O)COc2ccccc2C)cc([N+](=O)[O-])c1	2.2
Cc1ccc(-c2cc(=O)c3ccc4ccccc4c3o2)cc1	0.66
Cc1ccc(Cn2c(=O)cc(C(=O)O)c3ccccc32)cc1	-0.12
[O-][n+]1onc2ncc(Br)cc21	-0.32
COc1ccc(CCNC(=O)c2cc3cc4ccc(C)cc4nc3o2)cc1OC	1.5
O=C(Nc1ccc(Cl)cc1)Nc1ccc(Cc2ccncc2)cc1	-0.37
C=CCn1c(SCC(=O)Nc2cccc(F)c2)nnc1-c1cccs1	-1
CN(CC(=O)Nc1c2c(nc3c1CCC3)CCCC2)Cc1ccccc1	1.1
C=CCOC(=O)C1=C(C)NC2=C(C(=O)CCC2)C1c1ccc(OC)c(OC)c1 (configuration not stated)	-0.09
COc1ccc(C2C=C(c3ccc(OC(F)F)cc3)Nc3nnnn32)cc1 (configuration not stated)	0.84
O=C1c2ccccc2C(=O)N1c1ccccn1	2.5
(next part)
SMILES	Measles inh
Cn1c(OCc2ccc3c(c2)OCO3)nc2c1c(=O)n(Cc1ccccc1F)c(=O)n2C	0.59
CSc1c(C(N)=O)ccc2c1C(=O)c1ccccc1C2=O	-0.64
COc1ccc(S(=O)(=O)n2c(SCC(=O)Nc3ccccc3F)nc3ccc(OC)cc32)cc1	-0.01
CC1(C)CC(=O)C2=C(C1)Nc1ccccc1N(C(=O)c1ccccc1)C2c1ccc(-c2cccc([N+](=O)[O-])c2)o1 (configuration not stated)	-1.5
CC1=C(C(=O)OC(C)C)C(c2ccc(C)c([N+](=O)[O-])c2)C2=C(CCCC2=O)N1 (configuration not stated)	-0.15
CCOC(=O)CSc1nnnn1-c1ccccc1F	-0.12
COc1ccc([N+](=O)[O-])cc1N1C(=O)C2C3C=CC(CC3)C2C1=O (configuration not stated)	-0.43
O=c1c2sc3ccc([N+](=O)[O-])cc3c2[nH]c(=S)n1Cc1ccccc1Cl	0.82
COc1ccccc1CN(C(=O)c1ccccc1)c1ccc(N2CCOCC2)c(Cl)c1	-0.96
COc1ccc(OC)c(NC(=O)c2sc(=S)n(-c3ccccc3)c2N)c1	1.6

Some values from the entries so far:
Entry for `Cc1cccc(NC2=NC3(CCCC3)N=C(N)N2)c1` in Measles inh: -2
Entry for `Cc1nc2c(C(=O)NCc3ccccc3)c[nH]n2c(=O)c1Cl` in Measles inh: -0.24

Continued:
SMILES	Measles inh
Cc1ccc(S(=O)(=O)c2nc(-c3cccc(Cl)c3)oc2N2CCCCC2)cc1	-0.07
CC(=O)N1CCc2cc(S(=O)(=O)CCC(=O)N3CC(=O)N(CCc4ccccc4)C(=O)C3)ccc21	0.98
O=C(Nc1nc2c(s1)CCc1ccccc1-2)c1ccc(S(=O)(=O)N2CCCCC2)cc1	-0.92
COc1ccc(C2C3=C(CC(c4ccc(Cl)cc4)CC3=O)Nc3ccccc3N2C(=O)CCC(=O)O)cc1 (configuration not stated)	-0.28
COc1cc2c(cc1NC(=O)c1ccccc1)oc1ccccc12	0
Cn1c(CNc2ccc(O)cc2)nc2ccccc21	0.96
COCCNc1ncnc2ccccc12	-0.27
Cc1ccc(N2C(=O)CSC2c2ccc(F)cc2)cc1C (configuration not stated)	0.71
COc1ccccc1Nc1n[nH]c(=S)n1-c1ccccc1OC	-0.49
O=C(c1ccc(Cl)cc1)N1C2C=CC(C2)C1(C(F)(F)F)C(F)(F)F (configuration not stated)	-0.73
COc1cccc(NC(=O)c2oc3ccc(S(=O)(=O)N4CC(C)CC(C)C4)cc3c2C)c1 (configuration not stated)	-0.39
CC1CCCN(S(=O)(=O)c2ccc(NC(=O)COc3ccccc3)cc2)C1 (configuration not stated)	1.2
O=C(NCCc1ccc(Cl)cc1)C1CCN(S(=O)(=O)c2cccc3nonc23)CC1	-0.34
CCC(=O)Nc1ccc([N+](=O)[O-])cc1C	1.7
Cc1ccc2c(c1)N(CCCC(=O)NCCN(C)C)C(=O)CO2	0.13
Cc1ccc([N+](=O)[O-])cc1-n1c(C)c(CC(Cl)(Cl)Cl)c2c1CC(C)(C)CC2=O	0.36
CCOC(=O)c1cnc2cc(-c3cccc(Br)c3)nn2c1C	2.8
O=S(=O)(NCCSCc1ccco1)c1ccc2c(c1)OCCO2	1.4
Cc1ccc2c(c1)N(CCCC(=O)NCCCN1CCCC1=O)C(=O)CO2	-0.84
CCC1Oc2ccc(C)cc2N(CC(=O)N2CCN(c3ccccc3F)CC2)C1=O (configuration not stated)	0.28
COCCN1C(=O)C(=O)/C(=C(/O)c2ccccc2)C1c1ccc(C(C)C)cc1 (configuration not stated)	0.68
Cc1cc(OCC(=O)N2N=C(C(F)(F)F)CC2(O)C(C)(C)C)ccc1Cl (configuration not stated)	-0.09
Cc1ccc(C(NC(=O)Cc2ccccc2)c2ccc3cccnc3c2O)cc1 (configuration not stated)	-0.16
Cc1cc2nc(-c3cc([N+](=O)[O-])ccc3N)c(=O)[nH]c2cc1C	-0.77
Cc1cccc(N2CCN(C(=O)c3ccc(N4CC5CC(C4)c4cccc(=O)n4C5)c(NC(=O)c4ccccc4Br)c3)CC2C)c1 (configuration not stated)	-0.75
COCCn1c(=O)[nH]c2cc(C(=O)NCc3ccc(C)cc3)ccc2c1=O	0.77
O=C(Nc1ccccc1C(F)(F)F)c1ccccc1Br	-0.01
CCOC(=O)c1cc(CC)sc1NC(=O)c1ccc(Br)cc1	0.82
O=c1[nH]cc(NCc2ccco2)c(=O)[nH]1	0.25
COc1ccccc1N1C(=O)CCC1(C#N)c1ccc(OCc2ccccc2)cc1 (configuration not stated)	0.13
c1csc(CNCc2cccs2)c1	0.44
COc1ccc(-c2nc(SCC(=O)Nc3ccccc3)c3c(=O)n(C)c(=O)n(C)c3n2)cc1	2.1
O=C(c1scc2c1OCCO2)N1CCN(c2ccc(F)cc2)CC1	0.12
COc1ccc(N2C(=O)CC(N(C)CCc3ccc(OC)c(OC)c3)C2=O)cc1 (configuration not stated)	-0.52
CCOCCn1c(N2CCCC2)nc2c1c(=O)[nH]c(=O)n2C	-0.11
CC(CCc1ccccc1)NC(=O)Cc1c(C(=O)O)[nH]c2ccccc12 (configuration not stated)	0.95
Cc1ccc(C)c(NC(=O)c2cc(S(=O)(=O)NC3CCCCC3C)ccc2F)c1 (configuration not stated)	0.11
COc1cccc(C2C(=O)N(C3CCCCC3)CC(=O)N2Cc2ccc(Cl)cc2)c1 (configuration not stated)	0.94
C=CCn1c(C(C)NC(=O)c2ccccc2)nc2ccccc21 (configuration not stated)	-0.04
Cc1cc(C)cc(NC(=O)C(C)N(c2ccccc2)S(C)(=O)=O)c1 (configuration not stated)	0.11
CCOC(=O)CS(=O)(=O)c1ccc(C(=O)NC(C)CC)cc1[N+](=O)[O-] (configuration not stated)	0.75
O=C(CSc1nnc(C2COc3ccccc3O2)n1-c1ccccc1)c1cccc([N+](=O)[O-])c1 (configuration not stated)	0.7
COC(=O)c1sc2nc(-c3ccco3)cc(C(F)(F)F)c2c1N	2.7
Cc1ccc(S(=O)(=O)CC#CCOC(=O)c2ccc([N+](=O)[O-])cc2)cc1	-1.7
CC1CCCCN1Cc1nc2c(c(=O)n(C)c(=O)n2C)n1CCCO (configuration not stated)	-0.6
COc1ccc(N2C(=O)CC(c3ccc([N+](=O)[O-])cc3)C3=C2CC(C)(C)CC3=O)cc1 (configuration not stated)	-0.29
CC(=O)c1ccc(NC(=O)C2CCCN(S(=O)(=O)c3cccc4nsnc34)C2)cc1 (configuration not stated)	-0.52
COc1ccc(C2C(C(=O)Nc3cc(Cl)c(OC)cc3OC)c3ccccc3C(=O)N2C)cc1 (configuration not stated)	-0.58
CSc1ccc(-c2nc3ncccn3c2Nc2ccccc2C)cc1	-0.47
CCOC(=O)C1=C(N)OC2=C(C(=O)CC(c3ccccc3)C2)C1c1ccc(OC)cc1OC (configuration not stated)	1.2
More compounds follow.
SMILES	Measles inh
Cc1cc(C)cc(C(=O)N(CCc2ccccc2)C2=CC3CCC(C2)N3C)c1 (configuration not stated)	0.09
O=[N+]([O-])c1cccc2c1nnn2C(CO)OCCO (configuration not stated)	0.27
O=C(c1ccc([N+](=O)[O-])cc1)N1N=C(C2CC2)CC1(O)C(F)F (configuration not stated)	1.3
COc1cccc(C(=O)N2CCN(S(=O)(=O)c3ccc4ccccc4c3)CC2)c1OC	-1.2
CCOC(=O)c1sc2ncnc(N3CCN(Cc4ccc5c(c4)OCO5)CC3)c2c1C	-0.49
CCc1ccc(OCc2nc(-c3ccc(Cl)cc3)no2)cc1	0.71
COc1ccc(-n2nc3cc(C)c(NC(=O)c4cc5ccccc5cc4OC)cc3n2)cc1	-0.48
Nc1c2c3c(c(Cl)ccc3[nH]c1=O)C(=O)c1ccccc1-2	7.1

A different layout for some results above.
Molecule,Measles inh
COC(=O)c1sc2nc(-c3ccco3)cc(C(F)(F)F)c2c1N,2.7
Cc1ccc(S(=O)(=O)CC#CCOC(=O)c2ccc([N+](=O)[O-])cc2)cc1,-1.7
CC1CCCCN1Cc1nc2c(c(=O)n(C)c(=O)n2C)n1CCCO (configuration not stated),-0.6
COc1ccc(N2C(=O)CC(c3ccc([N+](=O)[O-])cc3)C3=C2CC(C)(C)CC3=O)cc1 (configuration not stated),-0.29
CC(=O)c1ccc(NC(=O)C2CCCN(S(=O)(=O)c3cccc4nsnc34)C2)cc1 (configuration not stated),-0.52
COc1ccc(C2C(C(=O)Nc3cc(Cl)c(OC)cc3OC)c3ccccc3C(=O)N2C)cc1 (configuration not stated),-0.58
CSc1ccc(-c2nc3ncccn3c2Nc2ccccc2C)cc1,-0.47
CCOC(=O)C1=C(N)OC2=C(C(=O)CC(c3ccccc3)C2)C1c1ccc(OC)cc1OC (configuration not stated),1.2
Cc1cc(C)cc(C(=O)N(CCc2ccccc2)C2=CC3CCC(C2)N3C)c1 (configuration not stated),0.09
O=[N+]([O-])c1cccc2c1nnn2C(CO)OCCO (configuration not stated),0.27
O=C(c1ccc([N+](=O)[O-])cc1)N1N=C(C2CC2)CC1(O)C(F)F (configuration not stated),1.3
COc1cccc(C(=O)N2CCN(S(=O)(=O)c3ccc4ccccc4c3)CC2)c1OC,-1.2
CCOC(=O)c1sc2ncnc(N3CCN(Cc4ccc5c(c4)OCO5)CC3)c2c1C,-0.49
CCc1ccc(OCc2nc(-c3ccc(Cl)cc3)no2)cc1,0.71
COc1ccc(-n2nc3cc(C)c(NC(=O)c4cc5ccccc5cc4OC)cc3n2)cc1,-0.48
Nc1c2c3c(c(Cl)ccc3[nH]c1=O)C(=O)c1ccccc1-2,7.1
